# Source: PubChem BioAssay
# VACV E9 pol inh – inhibitors of vaccinia virus processive DNA synthesis (E9 polymerase); in vitro processive DNA synthesis, absorbance read-out; active compounds read low; some inactives read as strong as hits; normalized absorbance, % (no concentration beside the values); hit rate 0.94% among 46,000;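 active = replicate mean up to 90% and picked by the depositor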;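 also: 100% = median of the test wells of a plate; 100 nL library stock went into each well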
# Starred values were filed as active, the others as inactive. A portion of the library; count on the stated rates, not on these rows.
SMILES,VACV E9 pol inh
O=C(NCCc1ccc(Cl)cc1)c1cc(=O)[nH]c2ccc(Br)cc12,90
COc1ccccc1CNC(=O)c1cn(C2CCCC2)c(=O)c2c1c1ccccc1n2C,101
O=C1/C(=C\c2cccs2)SC(=S)N1c1ccccc1,100
O=C1CS(=O)(=O)C(c2cccs2)N1CC1CC1 (stereo unspecified),103
COc1ccc(CN2CCN(Cc3ccccc3C)CC2)cc1,100
CCN(C(=O)CSc1ncnc2ccccc12)c1ccccc1,106
COC(=O)/C(=C1\OC(=O)C(c2ccccc2)C1=O)c1ccccc1 (stereo unspecified),100
O=C(Nc1c2c(nn1-c1ccccc1)CSC2)c1ccccc1,101
O=C(CSC1=NCCc2ccccc21)c1ccccc1Cl,87
CN(c1ccccc1)c1nc(-n2ccnc2)nc(-n2ccnc2)n1,100
Cc1nc2c3ccccc3nc(SCc3cc(F)cc4c3OCOC4)n2n1,102
O=c1sc(Nc2ccc(Cl)c(Cl)c2)nc2ccccc12,102
O=C(c1sc2ccccc2c1Cl)N1CCc2ccccc21,101
O=C(O)c1cnn(-c2ccccc2)c1-n1cccc1CNCc1ccccc1,103
N#C/C=C(\Cl)c1ccccc1,83
O=C(NCCc1ccccc1)c1cc2ccccn2n1,101
CCOc1ccc(-n2c(=O)c3c4c(sc3n(CC(=O)NCC3CCCO3)c2=O)CCCC4)cc1 (stereo unspecified),102
O=C(CCCn1c(=O)c2cccn2c2ccccc21)NCCc1ccccc1,103
O=C1c2cccc3cccc(c23)N1CN1CCc2ccccc2C1,100
CCOC(=O)N1CCN(C(=O)CSc2nnc(COc3ccc(Cl)cc3)o2)CC1,94
CC(C)CC(=O)Nc1c2c(nn1-c1ccc(Cl)cc1)CSC2,102
O=C(CCSCc1cnn(-c2ccccc2)c1-n1cccc1)NCc1ccc2c(c1)OCO2,104
CCCCn1cnc2sc3c(c2c1=N)CCCCC3,100
O=C(Cn1nc(Cc2ccncc2)c2ccccc2c1=O)NCc1ccccc1,103
CCOc1ccc(C(=O)Nc2cc(C)ccn2)cc1,95
O=C(O)c1ccccc1N=Cc1ccccc1Cl,100
CCOC(=O)C1=CC(=C2C(=O)N(CC)C(=S)N(CC)C2=O)c2ccccc2O1,99
O=C(Oc1ccccc1)Oc1ccc2c(c1)oc(=O)c1ccccc12,93
CC1=CC2=NC(C(F)(F)F)(C(F)(F)F)NC(=O)N2C=C1,102
O=C1CC(C(F)(F)F)=NN1c1ccccc1,105
O=C1NC(=O)C(c2ccccc2)c2ccccc21 (stereo unspecified),90
COc1ccccc1-c1c(C)nn2c(NCCCN3CCCC3=O)cc(C)nc12,104
CCOC(=O)c1c(C)oc(-c2ccc(Cl)cc2)c1S(=O)(=O)NCc1ccccc1,102
CCCCn1c(CNC(=O)c2ccc(OC)cc2)nnc1SC(C)C,102
O=C1CN(C(=O)C23CC4CC(CC(C4)C2)C3)CC(=O)N1CCc1ccccc1,99
O=C(CC1CCCCC1)Nc1ccc2c(c1)OCCO2,101
CCOC(=O)Cn1c(=O)oc2cc(S(=O)(=O)NCc3cccc(OC)c3)ccc21,91
CCOC(=O)CSc1nnnn1-c1ccccc1,100
Nc1nn(-c2cccc(F)n2)cc1-c1ccc(Cl)cc1,83
CN(C(=O)C1CCCN1S(=O)(=O)c1ccc(Cl)cc1)c1ccccc1 (stereo unspecified),106
Cn1c(C(=O)N2CCCCCC2)cc2c(=O)[nH]c3ccccc3c21,92
CC(=O)Nc1ccc(C(=O)OCC(=O)Nc2cccc(C(F)(F)F)c2)cc1,106
CCCCCCCC/C=C\CCCCCCCC(=O)OCC(CO)OC(=O)CCCCCCC/C=C\CCCCCCCC (stereo unspecified),101
O=C(Nc1ccc(SC(F)(F)F)cc1)C(F)(F)F,102
CCOC(=O)C(C)Oc1cc(O)c2c(=O)cc(-c3ccccc3)oc2c1 (stereo unspecified),103
CC(C)(C)C(=O)Nc1nc(NC(=O)C(C)(C)C)nc(-c2ccccc2C(F)(F)F)n1,96
O=C1CC(c2nc3ccccc3[nH]2)CN1c1ccccc1 (stereo unspecified),101
CCCn1c2ccccc2c2nnc(SCCCC(=O)c3ccc4c(c3)OCCO4)nc21,104
O=C(NCc1ccccn1)/C(=C/c1ccccc1Cl)c1ccccc1,101
CC1CCN(C(=O)COC(=O)c2n[nH]c3ccccc23)CC1,96
OC(c1ccccc1)c1oc2ccccc2c1-c1cnn(-c2ccccc2)c1 (stereo unspecified),100
CC(C)CC(NC(=O)Cc1ccsc1)C(=O)NN (stereo unspecified),96
COCCN1C(=O)c2oc3ccc(Br)cc3c(=O)c2C1c1ccc(Cl)cc1 (stereo unspecified),110
O=C(Nc1ccccc1)N1CCN(c2ccc(C(F)(F)F)cn2)CC1,97
O=C(c1ccccc1)c1cnc(Nc2ccccc2)s1,92
O=C(O)c1cc2nc(C3CC3)cc(C(F)(F)F)n2n1,99
COc1ccc2cc(CCNC(=O)Cc3ccccc3)c(=O)[nH]c2c1,99
CCOC(=O)C1=CC2c3ccc(Br)cc3C=CC2OC1=O (stereo unspecified),99
O=C(Oc1ccccc1)Oc1cccc2ccccc12,100
O=C(NC(=S)Nc1ccccc1Cl)c1cnn2c(C(F)(F)F)cc(C(F)(F)F)nc12,108

# Some of the entries so far, field by field.
O=C(NC(=S)Nc1ccccc1Cl)c1cnn2c(C(F)(F)F)cc(C(F)(F)F)nc12
- VACV E9 pol inh = 108

O=C(NCc1ccccn1)/C(=C/c1ccccc1Cl)c1ccccc1
- VACV E9 pol inh = 101

O=C(Oc1ccccc1)Oc1cccc2ccccc12
- VACV E9 pol inh = 100

CC(C)CC(NC(=O)Cc1ccsc1)C(=O)NN (stereo unspecified)
- VACV E9 pol inh = 96

# Later entries.
SMILES,VACV E9 pol inh
Cc1ccc(S(=O)(=O)N2CCC(C)CC2)cc1,96
O=C(/C=C/c1ccccc1)Oc1nc2ccccc2s1,99
Cc1ccc(NC(=O)N2CCC(N(C)C(C)C)CC2)cc1C,91
CC(NC(=O)CCc1nc2ccccc2[nH]1)c1ccccc1 (stereo unspecified),104
CC12CCC(C1)C(C)(C)C2OCC(O)CN1CCN(c2cccc(Cl)c2)CC1 (stereo unspecified),98
CSc1ncnc2nc[nH]c12,93
O=C1c2ccccc2C(=O)N1CNCC(O)c1ccccc1 (stereo unspecified),100
c1cncc(-c2nnc(-c3cccnc3)nn2)c1,102
CCCCn1c(CNC(=O)Cc2ccccc2)nc2ccccc21,100
CC(=O)N=c1sc2cc(C)ccc2n1C,100
O=C(OC1CCCCC1=O)c1cccnc1Cl (stereo unspecified),100
CCOC(=O)c1ccc(NC(=O)CCOc2cccc(C)c2)cc1,103
Cc1cccc(COc2ccc3ccc(=O)oc3c2)c1,99
CN(C(=O)c1nn(C)c2c1CSc1ccccc1-2)c1ccccc1Cl,103
Cc1ccc(-c2nn3cnnc3c3ccccc23)cc1,100
COc1ccc(-c2cc(C(F)(F)F)nc(SCCC(=O)N(C)c3ccccc3)n2)cc1,96
CCn1cc(C2=NC(c3ccccc3)CO2)c2ccccc21 (stereo unspecified),107
CCN(CC)C(=O)c1cc(-c2ccccc2O)on1,92
O=C(NCc1cccnc1)/C(=C\c1ccc(Br)cc1)S(=O)(=O)c1ccccc1,101
CCOC(=O)c1[nH]ncc1Sc1ccc(Cl)cc1,101
NC(=O)c1ccc(-c2nnc(-c3ccccc3)o2)cc1,94
CCN(Cc1ccccc1)C(=O)Cn1c(C(C)O)nc2ccccc21 (stereo unspecified),102
CSc1nn(-c2ccccc2)cc1C(=O)Nc1cccc(C(F)(F)F)c1,109
CC(C)(C)C(=O)Nc1cccc2[nH]ncc12,115

# Sorted by SMILES length (smallest number first): 5 of the compounds above
SMILES,VACV E9 pol inh
Cc1cccc(COc2ccc3ccc(=O)oc3c2)c1,99
CCn1cc(C2=NC(c3ccccc3)CO2)c2ccccc21 (stereo unspecified),107
CSc1nn(-c2ccccc2)cc1C(=O)Nc1cccc(C(F)(F)F)c1,109
O=C(NCc1cccnc1)/C(=C\c1ccc(Br)cc1)S(=O)(=O)c1ccccc1,101
COc1ccc(-c2cc(C(F)(F)F)nc(SCCC(=O)N(C)c3ccccc3)n2)cc1,96

# (list continues)
SMILES,VACV E9 pol inh
CCCCCCCCCCCCCC(=O)N[C@H](C)[C@@H](O)c1ccccc1,100
Cc1cc(C)n2c(SC3CCCCC3NS(=O)(=O)c3ccccc3)nnc2n1 (stereo unspecified),104
CCC1CCc2nc3sc(C(=O)Nc4ccccc4C(F)(F)F)c(N)c3cc2C1 (stereo unspecified),100
CCCN(CCC)S(=O)(=O)c1ccc(C(=O)Nc2cccc(SC)c2)cc1,99
O=C1OCc2cc(NS(=O)(=O)c3ccc(C4CCCCC4)cc3)ccc21,98
CCC1CCCCN1C(=O)CSc1ccc(Cl)cc1 (stereo unspecified),102
C=C(C)CC(NC(C)c1ccccc1)c1ccco1 (stereo unspecified),100
O=C(OCc1cccs1)C1CCCCC1,104
Fc1ccc(CNCCN2CCOCC2)cc1,100
S=C(Nc1ccccc1Cl)N1CCOC1c1c[nH]c2ccccc12 (stereo unspecified),100
CC1c2[nH]c3ccccc3c2CCN1C(=S)Nc1ccccc1 (stereo unspecified),100
CC12CCCC(C(N)=O)(CCC1)C2,100
CCN(CC)C(=O)c1sc(N)c(C#N)c1C,100
CCn1c(SCc2nc3ccccc3[nH]2)nnc1-c1ccccc1,100
COc1ccc(NC(=O)N2c3ccccc3Sc3ccccc32)cc1,100
O=C(NCc1ccccc1)C(Cc1ccccc1)NS(=O)(=O)c1cccc2nsnc12 (stereo unspecified),93
COc1ccc(-c2csc(NC(=O)C3CCCCC3)n2)cc1,101
CC1CCCC(C)N1C(=O)CSc1nc2ccccc2s1 (stereo unspecified),85
O=C(Oc1ccccc1)C(c1ccccc1)c1ccccc1,100
COc1ccc(C(=O)CSc2nc3ccccc3n2C)c(F)c1,100
COc1ccc(N/C=C/C(=O)c2ccc3c(c2)OCO3)cc1OC,100
CCOC(=O)Cn1c(=NC(=O)c2ccccc2Br)sc2cc(C)ccc21,100
COc1ccc(-c2cc(C(=O)Nc3cc(Cl)ccc3OC)c3ccccc3n2)cc1,105
Nc1ccc(N2CCCCC2)cc1,100
CC(C)(C)n1cnc2cc(NCc3ccccn3)ccc21,99
CC1CCC/C(=C/Nc2ccc3c(c2)OCO3)C1=O (stereo unspecified),100
Cc1cc(C)cc(NC(=O)c2ccc3c(c2)NC(=O)c2ccccc2S3)c1,102
COc1ccc(C(=O)c2coc3ccc(O)c(CN4CCCC4)c23)cc1,100
O=C(COc1ccccc1)OCCN1CCCC1=O,104
Cc1cc(C)cc(-n2c(SCC(=O)Nc3ccccc3C(F)(F)F)nc3c(c2=O)SCC3)c1,90
CC1(C)C2CCC1(CS(=O)(=O)Nc1ccc(F)c(Cl)c1)C(=O)C2 (stereo unspecified),100
Cc1nn(-c2ccccc2)c2sc(C(=O)NCCCN3CCCC3=O)cc12,92
CC1(C)CC(=O)C(C=NC2CCCC2)=C(O)C1,100
Cc1ccc(C(CC(=O)c2ccco2)Sc2ccccc2N)cc1 (stereo unspecified),100
O=C(O)CSc1nnc(-c2ccncc2)n1-c1ccccc1,101
COc1ccc(-c2sc(/N=C/c3cccs3)c(C#N)c2C)cc1OC,106

# Single values from the entries so far.
# COc1ccc(-c2sc(/N=C/c3cccs3)c(C#N)c2C)cc1OC in VACV E9 pol inh = 106
# COc1ccc(C(=O)c2coc3ccc(O)c(CN4CCCC4)c23)cc1 in VACV E9 pol inh = 100
# O=C(COc1ccccc1)OCCN1CCCC1=O in VACV E9 pol inh = 104
# CC(C)(C)n1cnc2cc(NCc3ccccn3)ccc21 in VACV E9 pol inh = 99

# Carrying on.
SMILES,VACV E9 pol inh
Nc1c(NC2CCN(Cc3ccccc3)CC2)c2ccccc2oc1=O,100
O=C(NC1CCCCC1)C1CCCN1C(=O)Oc1ccccc1 (stereo unspecified),100
CC1(C)CC(=O)C2=C(C1)OC(N)=C(C#N)C2CCc1ccccc1 (stereo unspecified),101
COC(=O)C1=CO[C@H](C)[C@@H]2CN3CCC4(C(=O)Nc5ccccc54)C3C[C@H]12 (stereo partly specified),100
CCN(C(=O)c1cc(S(=O)(=O)N2CCc3ccccc32)cn1C)c1ccccc1,91
O=C(CC1Nc2ccccc2NC1=O)Nc1ccccc1 (stereo unspecified),104
Cc1ccsc1C(=O)Oc1ccc(F)cc1,106
CCC(CC)C(=O)NCc1ccc2[nH]c3c(c2c1)CCCC3,98
O=C1C(=Nc2ccc(Cl)cc2)c2ccccc2N1CN1CCc2ccccc2C1,101
COc1cccc(C(=O)Nc2nc(-c3cccs3)cs2)c1,100
CCn1c(CCCNC(=O)c2cccc(C)c2)nc2ccccc21,97
CC(C(=O)OCC(=O)n1c2c(c3ccccc31)CCCC2)N1C(=O)c2ccccc2C1=O (stereo unspecified),99

# Among those listed so far, these contain a tert-butyl group:
SMILES,VACV E9 pol inh
CC(C)(C)C(=O)Nc1nc(NC(=O)C(C)(C)C)nc(-c2ccccc2C(F)(F)F)n1,96
CC(C)(C)C(=O)Nc1cccc2[nH]ncc12,115
CC(C)(C)n1cnc2cc(NCc3ccccn3)ccc21,99

# (listing goes on)
SMILES,VACV E9 pol inh
CSc1oc(-c2ccco2)nc1S(=O)(=O)c1ccc(F)cc1,100
O=c1c2cc(NC(=S)NCC3CCCO3)ccc2nc2n1CCCCC2 (stereo unspecified),90
S=C(NCc1ccccc1)NCc1ccccn1,87
NC(=O)C(c1ccc(F)cc1)c1ccc(C(=O)c2ccccc2)cc1 (stereo unspecified),87
CCOC(=O)c1ncn2c1C(=O)OC2(C)C,104
Cc1ccc2[nH]c(=O)c(CN3CCCCC3)c(-c3ccccc3)c2c1,99
O=C(c1ccccc1)N(Cc1ccco1)C1CCS(=O)(=O)C1 (stereo unspecified),103
N/C(COc1ccccc1)=N\O,100
Cc1cc(NC(=O)COc2ccccc2)n(-c2ccccc2)n1,99
CCCC(=O)NCc1ccc2c(c1)cc(C)n2C,100
Nc1nc2ccccc2n1Cc1ccc(Cl)cc1,107
Fc1ccc(C2=NNC3=NCCN3C2)cc1F,101
COc1ccccc1C(=O)COC(=O)c1ccc(Br)cc1,92
N#CCCCN(Cc1ccccc1)Cc1ccccc1,107
COC(=O)c1ccc2c(c1)sc1nc(-c3ccc(OC)cc3)cn12,100
N#C/C(=C\C(=O)O)c1cccs1,98
c1cc2c(cc1NC1=NCCCCC1)OCCO2,100
